Screens: PubChem BioAssay, National Center for Advancing Translational Sciences (NCATS)
gsp ag: activates gsp, the McCune-Albright syndrome mutation | gsp mutant cells, cAMP HTRF, 30 min; control for the full effect not named in the record | Potency, µM (series often up to 76.9 µM), inactives show at the highest dose activation (cAMP increase), hits mostly activators | actives 0.13% (n = 340,000) | AID 624287; active = well fitted activation curve with a large enough effect; inconclusive = small, poorly fitted or top-dose-only effect, or another doubt; inactive = no such curve, though single readings can be large or run the other way; cell line not stated here;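 also: phosphodiesterase inhibitor Ro 20-1724 added with compounds to block cAMP breakdown; potency is read from the fitted curve at half-maximal effect; nearly all actives have a fitted effect of over 60% in size; about a fifth of the inactives were tested at one dose only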
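Cells stably selected in G418 were plated at 2000/well, grown 16-24 hr, then given compounds in DMSO with the PDE inhibitor […] (300 uM solution added) for 30 min at 37C; cAMP was read by HTRF.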
D2 ag: human D2 receptor agonism in beta-arrestin assay. actives 0.084% (n = 360,000). DiscoveRx PathHunter D2 beta-arrestin, luminescence, 90 min; 100% = 57 uM dopamine signal. P14416. activation, % (concentration not given with the values); in the data active = activation above about 40%; inconclusive = about 15% to 40%; inactive = below about 15%; also: compound concentration not given in the record; the text of the record calls up to 30% inactive
Target sequence (P14416 whole entry, looked up): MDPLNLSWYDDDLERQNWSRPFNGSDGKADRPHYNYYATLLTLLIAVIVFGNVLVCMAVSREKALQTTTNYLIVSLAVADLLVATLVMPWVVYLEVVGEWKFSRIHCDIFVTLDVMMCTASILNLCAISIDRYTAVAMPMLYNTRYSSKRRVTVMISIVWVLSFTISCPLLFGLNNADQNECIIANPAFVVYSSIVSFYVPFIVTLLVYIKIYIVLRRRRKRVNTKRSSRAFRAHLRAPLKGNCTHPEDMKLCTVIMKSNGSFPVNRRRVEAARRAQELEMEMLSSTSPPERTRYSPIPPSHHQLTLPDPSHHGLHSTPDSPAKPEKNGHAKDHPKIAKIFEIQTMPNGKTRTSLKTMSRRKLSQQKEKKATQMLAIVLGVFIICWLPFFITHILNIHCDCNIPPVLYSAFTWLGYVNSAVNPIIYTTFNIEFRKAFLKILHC
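DiscoveRx PathHunter D2 beta-arrestin cells (2,100/well) attached overnight, then compound-stimulated 90 min at 37 C in HBSS/10 mM HEPES/0.1% Tween-20 buffer; beta-galactosidase complementation read by luminescence after 1 h at ambient temperature. Dopamine 57 uM final (EC100) as control.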
PINK1 modulator: modulators of PINK1 expression; PINK1 immunofluorescence, high-content cytometry, 24 h; Potency, µM (series often up to 76.6 µM), for the others: top-dose activation (PINK1 increase), actives largely listed as activators; actives 0.2% (n = 410,000); active = well fitted activation curve with a large enough effect; inconclusive = small, poorly fitted or top-dose-only effect; inactive = flat fitted curve, though single readings scatter; cell line not stated here;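 also: potency is read from the fitted curve at half-maximal effect; % of control where 0% means no effect; nearly all actives have a fitted effect of over 65% in size; a mitochondrial uncoupler was the plate control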
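Cells are seeded, rested 12 hours, then given compound at five concentrations or DMSO for 24 hours. After fixation, blocking and antibody staining, PINK1 amount and mitochondrial localization are scored; CCCP serves as control.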
ClpP mod: qHTS Assay for Activators of ClpP. ATP-dependent Clp protease proteolytic subunit (Bacillus subtilis (strain 168)), P80244. purified B. subtilis ClpP, FRET peptide cleavage, 20 min. Potency, µM (top dose mostly 57.5 µM), inactives show at the top dose activity change, negative = active. actives 1.9% (n = 340,000). AID 651965, 2013; active = well fitted falling curve with a large enough effect; inconclusive = small, poorly fitted or top-dose-only effect; inactive = no such curve, though single readings can be large or run the other way; also: potency is read from the fitted curve at half-maximal effect; the source files actives as falling curves though it sought activators and does not explain the sign; nearly all actives have a fitted effect of over 65% in size; many hits overshoot -100%
Target sequence (P80244 whole entry, looked up): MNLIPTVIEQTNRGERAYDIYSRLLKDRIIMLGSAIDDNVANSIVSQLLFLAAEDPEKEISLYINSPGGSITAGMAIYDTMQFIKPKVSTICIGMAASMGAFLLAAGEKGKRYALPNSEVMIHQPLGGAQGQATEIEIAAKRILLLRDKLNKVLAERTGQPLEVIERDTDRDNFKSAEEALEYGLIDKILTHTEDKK
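Purified B. subtilis ClpP, 10 microg/mL final in Tris/HCl pH8 with KCl, BSA, glycerol and Tween-20, cleaved an Abz/nitrotyrosine-quenched decapeptide. Fluorescence (ex 320, em 430) was read at 0 and 20 min at room temperature. Delta was normalized to 5.8 microM ADEP and DMSO/no-enzyme controls.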
Menin MLL FP FL: displaces fluorescein MLL peptide from human menin. Fluorescence polarization, fluorescein-MLL peptide displacement from menin. FP activity change, % at 61.4 µM. 290,000 tested, under 10 active; inconclusive = falling polarisation curve, or a change in total fluorescence; inactive = total fluorescence flat and polarisation flat or rising; no compound was filed as active; the % refers to the polarisation; negative = inhibition;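 also: % of control where 0% means no effect; inhibitors lower the polarisation; unlabelled MLL peptide was the positive control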
gsp antag: antagonizes gsp, the McCune-Albright syndrome mutation; gsp-mutant cells, cAMP HTRF, 30 min; control for the full effect not named in the record; Potency, µM (titrated, usually from 76.9 µM), without a hit: top-dose activity change, negative = inhibition, most hits filed as inhibitors; actives 0.4% (n = 340,000); AID 624288; active = falling curve of any shape with a large fitted effect; inconclusive = falling curve, mostly with a smaller effect; inactive = flat or rising curve; cell line not stated here;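 also: intracellular cAMP measured with PDE inhibitor Ro 20-1724 present during compound exposure; potency is read from the fitted curve at half-maximal effect; % is scaled to controls: 0 for no effect and ±100 for the full control effect; nearly all actives have a fitted effect of over 65% in size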
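HTRF cAMP measurement after 30 min RT detection following 30 min, 37C compound treatment alongside […] (added as 300 uM solution) in G418-selected cells seeded at 2000/well and grown 16–24 h.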
Sfp inh: Sfp phosphopantetheinyl transferase inhibition; Biochemical Sfp PPTase activity, qHTS; actives 3.5% (n = 310,000); Q9F4F7; Potency, µM, for the others: max response, negative = inhibition, hits mostly inhibitors; active = well fitted inhibition curve with a large enough effect; inconclusive = small, poorly fitted or top-dose-only effect, or another doubt; inactive = no such curve, though single readings can be large or run the other way;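 also: the enzyme is Sfp with the accession as filed and its product quenches rhodamine fluorescence; potency is read from the fitted curve at half-maximal effect; 0% = enzyme reaction without inhibitor and -100% = no enzyme wells; top concentration of the series not given in the record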
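Fluorescence-quenching assay: 15 nM Sfp-PPTase preincubated 15 min at room temperature with compound, then 5 uM rhodamine-CoA and 12.5 uM BHQ-2-labelled YbbR peptide added. Fluorescence (ex 525/em 598 nm) read at start and after 30 min; difference gives rate.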
Numbers without * were called inactive; u = inconclusive; x = not tested or not shown; & = joins results of further samples; [ ] = another dose, or the depositor's remark.

SMILES	gsp ag	D2 ag	PINK1 modulator	ClpP mod	Menin MLL FP FL	gsp antag	Sfp inh
C=C(C)CNC(=S)NNC(=O)CCn1c2cc(Cl)ccc2c2ccc(Cl)cc21	-9%	-8.1	1.1%	-0.7%	0.6	-13%	15%
Cc1cccc(C(=O)Nc2nnc(SCC(=O)NCc3ccco3)s2)c1	17%	1.1	-0.5%	-0.6%	x	3%	x
CCC1(CC)NC(=O)N(CC(=O)OCC(=O)Nc2ccc(C(F)(F)F)cc2)C1=O	-9%	0.2	-0.5%	1.9%	3.1	-4%	21%
COc1ccc(OC)c(NC(=O)CN(c2ccc(C)cc2)S(=O)(=O)c2c(C)noc2C)c1	0%	-1.8	0.2%	-5.5%	3.5	u	14%
CCOC(=O)c1c(NC(=O)CNCC(O)CO)sc(C)c1C (stereo not drawn)	-5%	-0.5	-1.6%	-4.4%	0.1	-9%	-11%
Cc1cccc2sc(N(CCCN(C)C)C(=O)c3sc4ccccc4c3Cl)nc12	u	-4.0	-1.2%	0.7%	1.4	20%	32µM*
CC(=O)c1sc(NCc2ccc(C)cc2)nc1C	24%	-4.6	-1.8%	x	6.5	10%	1%
O=c1[nH]c2cc3c(cc2cc1CN(Cc1cccnc1)Cc1nnnn1Cc1ccco1)OCCO3	6%	-0.8	u	14µM*	u	-4%	16µM*
CCCS(=O)(=O)c1cnc(C2COc3ccccc3O2)nc1N (stereo not drawn)	1%	-0.4	0.2%	-3.0%	1.3	3%	7%
CSc1nc2c(c(=O)[nH]1)C(c1ccc(Br)cc1)CC(=O)N2 (stereo not drawn)	-32%[15.4 µM]	-3.6	0.5%	x	-0.4	3%	14%
COc1ccc(N2CCN(C(=O)Cn3nnc(-c4ccc(OC)c(OC)c4)n3)CC2)cc1	13%	0.0	-2.5%[38.3 µM]	9.2%	-2.0	-1%	-6%
COc1ccc(CN2CCC(c3nc4ccc(Cl)cc4[nH]3)CC2)cc1	u	-1.9	-0.6%	0.6%	0.1	6%	16%
CCOc1ccc(N2C(=O)C(=O)/C(=C(/O)c3ccccc3)C2c2ccccc2[N+](=O)[O-])cc1 (stereo not drawn)	6%[15.4 µM]	-11	0.3%	x	1.5	-5%	u
Cc1cc(C)nc(NC(=O)c2cccc([N+](=O)[O-])c2)c1	-4%	-1.4	-0.9%	1.2%	7.3	10%	1%
COC(=O)c1c(-c2ccccc2)noc1C	0%[15.4 µM]	-2.8	-0.3%	x	2.0	14%	25%
COc1cc(SC)ccc1C(=O)N(CC(=O)Nc1ccccc1Br)Cc1ccco1	12%[15.4 µM]	-5.0	-3.3%	x	x	-28%	x
Cc1cccc(C(=O)N2CCCC(N3CCN(c4ccccc4F)CC3)C2)n1 (stereo not drawn)	-40%[inhibitor]	0.7	0.3%	-7.7%	x	8%	21%
Cc1cccc(N2CCN(C(=O)CCn3c(=O)[nH]c4ccsc4c3=O)CC2C)c1 (stereo not drawn)	13%	56*	2.0%	x	-6.0	3%	9%
O=C(O)CCCCCNCc1c(Cl)cccc1Cl	-2%	-0.2	-1.5%	-2.9%	7.4	11%	-12%
COc1ccccc1-c1ccc2c(c1)C(C)(Cc1ccc(Cl)c(Cl)c1)C(=O)N2 (stereo not drawn)	x	-2.5	-0.6%	-13%	x	x	x
COc1cccc(OC)c1Nc1nc(C)nc2c1nnn2Cc1ccccc1Cl	-2%[15.4 µM]	-2.5	-0.1%	x	0.0	-7%	14%
CNC(=O)/C(C#N)=C/c1cccc(Oc2ccccc2)c1	-3%[15.4 µM]	0.2	8.1%	x	1.5	3%	1%
O=C(c1ccco1)N1CCN(C(=O)c2ccccc2OCc2ccccc2)CC1	0%[15.4 µM]	0.1	0.4%	0.5%	x	1%	x
COc1ccc(Cc2nnc(N/N=C/c3ccc(C)o3)[nH]c2=O)cc1	2%	1.1	18%	1.4%	2.1	11%	-13%
CCc1cc(=O)oc2c(C)c(OC(C)C(=O)N3CCC[C@@H]3C(=O)O)ccc12 (stereo partly drawn)	x	-4.6	-1.1%	4.8%	-2.2	6%	13%

An excerpt from above in order of the Sfp inh value, rising.
SMILES	gsp ag	D2 ag	Menin MLL FP FL	Sfp inh
COc1ccc(Cc2nnc(N/N=C/c3ccc(C)o3)[nH]c2=O)cc1	2%	1.1	2.1	-13%
CNC(=O)/C(C#N)=C/c1cccc(Oc2ccccc2)c1	-3%[15.4 µM]	0.2	1.5	1%
CSc1nc2c(c(=O)[nH]1)C(c1ccc(Br)cc1)CC(=O)N2 (stereo not drawn)	-32%[15.4 µM]	-3.6	-0.4	14%

The list continues:
SMILES	gsp ag	D2 ag	PINK1 modulator	ClpP mod	Menin MLL FP FL	gsp antag	Sfp inh
Cc1ccc2nc(Cl)cc(=O)n2c1	-7%	-2.3	-4.6%	28µM*	x	13%	x
N#Cc1ccc(Nc2ccccc2)c(N)c1	19%	-4.3	0.1%	u	1.3	1%[15.4 µM]	-16%
O=C(CNC(=O)c1ccc(Br)o1)NCc1ccc(F)cc1	6%	-7.1	3.6%	0.8%	x	15%	-5%
O=C(COC(=O)c1ccccc1OCC(=O)Nc1ccc(Br)cc1)Nc1ccccc1	-52%[inhibitor]	0.1	11%&-0.6%	-1.7%&3.2%	4.1	-1%	1%
O=C(c1ccc(N2CCOCC2)c([N+](=O)[O-])c1)N1CCN(c2ccccc2)CC1	-6%[15.4 µM]	-4.2	0.6%	x	x	-2%	x
S=C(NCc1ccco1)N1CCN(C/C=C/c2ccccc2)CC1	-41%[inhibitor]	0.5	-0.2%	x	-1.7	2%	79µM*
CCCNS(=O)(=O)c1ccc2c(c1)n(C)c(=O)n2C	9%[15.4 µM]	-2.6	1.6%	x	-4.3	16%	8%
COc1cc(NC(=O)CCc2ccccc2)c(C(=O)O)cc1OC	-13%	-1.7	-1.2%	-7.5%	2.3	u	-18%
O=C1c2ccccc2S(=O)(=O)c2cc(N3CCOCC3)ccc21	18%	-5.4	0.6%	2.8%	x	5%	x
c1ccc(-c2c[nH]c3[n+]2CCCCC3)cc1	27%	-1.7	3.6%	3.9%	3.3	1%	-12%
CCOc1ccc(C(=O)Nc2ncn[nH]2)cc1	-23%	-0.3	-1.0%	-1.7%	-1.1	4%	1%
CCCN(CCC)c1ccc(CC(=O)NC(C)Cc2ccccc2)cc1 (stereo not drawn)	19%	-2.5	-0.1%	-1.8%	3.4	-5%	-2%
O=C1OC(c2ccc(O)cc2)(c2ccccc2O)c2ccccc21 (stereo not drawn)	-63%[inhibitor]	1.1	13%	-2.9%	x	-2%	x
c1cnc2ccc(-n3ccnc3)cc2c1	x	-2.7	-0.4%	-1.2%	x	x	x
COCCNC(=O)C(=O)Nc1cc2c3c(c1)CC(=O)N3CCC2	0%	-3.5	-0.1%	-11%	x	7%	18%
C/C=C/COC(=O)c1[nH]c2c(c1C)C(=O)CC(c1ccc(N(C)C)cc1)C2 (stereo not drawn)	-11%	u	9.3%	0.7%	4.6	-16%	2%
CCC(CC)N1CCN(C(=O)c2cccc(Cl)c2)CC1	27%	-4.4	-0.9%	x	2.6	6%	-16%
COc1ccc2c(c1)C[C@]1(C)c3ccccc3C(=O)N(Cc3ccccc3)[C@H]21	x	-0.9	0.3%	0.8%&-1.4%	x	-9%	x
Cc1cc(OCC(=O)Nc2ccc3c(c2)OCCO3)cc(C)c1Cl	13%	-1.0	0.3%	1.1%	2.4	-11%	-7%
CC1CC(c2ccccc2)=Nc2ccccc2N1 (stereo not drawn)	7%[15.4 µM]	-0.3	0.2%	-1.6%	5.5	7%	-3%
O=[N+]([O-])c1ccccc1SNc1ccc(Br)cn1	-10%	7.4	4.0%	x	0.2	1%	3%
O=C(Nc1ccc2nc3n(c(=O)c2c1)CCCCC3)C(=O)N1CCN(c2ccccc2F)CC1	27%	-0.6	1.0%	-1.7%	0.1	-4%	12%
CCOc1cc(-c2nc(-c3ccccc3)c(-c3cc([N+](=O)[O-])ccc3C)[nH]2)ccc1O	-20%	-2.1	-2.4%	-1.8%	-0.1	-5%	20%
Cc1ccc(S(=O)(=O)N2CCN(C(=O)c3c(-c4ccccc4)noc3C)CC2)cc1C	10%[15.4 µM]	-2.5	-0.5%	x	-2.4	-19%	12%
Cc1ccc(S(=O)(=O)CCC(=O)OC(C)C(=O)Nc2ccc(N3CCOCC3)cc2)cc1 (stereo not drawn)	u	-2.7	0.7%	-0.3%	x	2%	x
SMILES	gsp ag	D2 ag	PINK1 modulator	ClpP mod	Menin MLL FP FL	gsp antag	Sfp inh
CSc1cccc(NS(=O)(=O)c2ccc(C(C)=O)cc2)c1	-3%[15.4 µM]	-1.9	-0.1%	x	0.6	-4%	4%
CCOc1ccccc1N(C)C(=O)c1cn(C)c(=O)c2ccccc12	0%[15.4 µM]	-2.4	0.9%	-0.8%	-2.4	-8%	2%
O=C(OCc1ccccc1)N1CCCC1/C=C/CN1CCOCC1 (stereo not drawn)	9%	0.6	1.0%	x	-4.3	7%	17%
COc1c2ccoc2c(OCC=C(C)C)c2oc(=O)ccc12	8%	-0.8	0.8%	0.0%	8.5	-8%	-7%
O=C(Nc1ccc(C(F)(F)F)cc1)C1CC(=O)N(c2ccc3c(c2)OCCO3)C1 (stereo not drawn)	u	-2.2	9.4%	0.5%	5.6	4%	-2%
NNC(=S)Nc1c(F)cc(F)cc1Br	-20%[15.4 µM]	-2.5	2.3%	x	-0.8	0%	79µM*
CCN(CC)S(=O)(=O)c1ccc(N2CCOCC2)c(NC(=O)c2cc3ccccc3oc2=O)c1	16%[15.4 µM]	-18	-0.1%	0.4%	-12	2%	-7%
CC(NC(=O)c1ccc(CS(=O)(=O)c2ccc(Cl)cc2)o1)c1ccc2c(c1)OCCO2 (stereo not drawn)	5%	0.0	-1.1%	-2.5%	1.5	u	-3%
CCN1CCN(C(=O)Nc2ccc(Cc3ccc(NC(=O)N4CCN(CC)CC4)cc3)cc2)CC1	1%	-1.4	-1.4%[38.3 µM]	-0.1%	0.6	12%	-11%

Compounds were not picked by outcome; any-hit rate near 5.1%.
